# H5N1 antiviral: antiviral screen in MDCK cells, H5N1 avian flu; cytopathic effect, luminescence, 72 h; hits give high values; no value below 0 was filed and about half of the inactive calls have no number; reference of the scale not given here; inhibition, % at 50 µM; 0.07% of 96,000 active; in the data active = inhibition above about 25%
# * marks the source's active call; other numbers are inactive results; i = inactive. An excerpt; the hit share may differ from the screen's.
SMILES,H5N1 antiviral
CCOC(=O)c1cnc(SC)nc1Oc1cccc(NS(=O)(=O)c2ccc(F)cc2)c1,i
COCCn1cnnc1SCC(=O)Nc1ccccc1C(=O)Nc1ccc2c(c1)OCO2,i
CS(=O)(=O)N1CCCC(C(=O)NCc2ccccn2)C1 (configuration not stated),0.5
Cc1ccc(-c2nc(N/N=C/c3cccnc3)c3ccccc3n2)cc1,i
Cc1ccc(N(C(=O)CC2NC(=O)NC2=O)C2(C(=O)NC3CCCC3)CCCCC2)cc1 (configuration not stated),0.5
Cc1ccc(CNc2nc3ccccc3n3nnnc23)cc1,i
CC(C)OCCCNC(=O)c1c(N)n(CC2CCCO2)c2nc3ccccc3nc12 (configuration not stated),i
O=C(Nc1cccnc1)c1cc(-c2ccc(Br)cc2)on1,i
O=C(Nc1sc2c(c1C(=O)O)CCC2)c1ccccc1,1.1
Cc1c(O)ccc(C(=O)COc2ccc(F)cc2)c1O,i
CC1CN/C(=C\C(=O)c2ccccc2)C(=O)N1 (configuration not stated),0.2
COc1ccc(CNc2oc(COc3ccccc3)nc2C#N)cc1,0.3
CCOC(=O)Cn1c(=O)n(C2CCCC2)c(=O)c2ccccc21,1.0
CC1CC(N(C(=O)c2ccc(Cl)cc2)c2ccccc2)c2ccccc2N1C(=O)c1ccco1 (configuration not stated),13
Cc1nn(C)c(C)c1S(=O)(=O)NC1CCCc2ccccc21 (configuration not stated),0.3
CN(CCc1ccccn1)Cc1ccc(Cl)cc1,i
Cc1ccc2c(c1)C1CCCC3C1N2CC(=O)N3Cc1ccccc1 (configuration not stated),i
O=C(Nc1cccnc1Cl)c1cccnc1Cl,i
CCNC(=S)NNC(=O)Cn1nc(C)cc1C,i
O=C(Nc1cccnc1)c1ccc(CN2CCc3ccccc3C2)cc1,i
Cc1cc2cc3c(N)[nH]nc3nc2cc1C,i
CN(C)C(=O)Oc1ccc(Cl)c2ccccc12,3.7
O=C(Nc1cccc(-c2cn3cccnc3n2)c1)c1ccco1,i
COc1ccc(OCCn2cc(/C(N)=N/O)c3ccccc32)cc1,0.1
CCOC(=O)c1c(C)c(C(=O)Nc2cc(OC)ccc2OC)c(C)n1CC,i
Cc1ccc(NS(=O)(=O)c2ccc(NC(=O)c3cccs3)cc2)cc1,i
CCOc1ccc2nc(SC3CC(=O)N(c4ccc(C)cc4)C3=O)sc2c1 (configuration not stated),0.2
COc1ccc(-n2c(=O)c3c4c(sc3n(CC(=O)NCc3ccco3)c2=O)CCC4)c(OC)c1,0.4
Cc1ccc(S(=O)(=O)Oc2cccc(N3C(=O)C4CC=CCC4C3=O)c2)cc1 (configuration not stated),2.6
COc1ccc(-n2nc3ccc(NS(C)(=O)=O)cc3n2)cc1Cl,i
COc1ccc(/C=N/NC(=O)c2cc(-c3ccc(C)cc3C)nc3ccccc23)cc1COC(C)=O,i
CCOC(=O)c1c(C)c(C(=O)N2CCCCCC2)c(C)n1CC,i
O=C1C2=C(c3ccccc31)[N+](=O)C1CCCCC1N2[O-] (configuration not stated),1.7
COc1ccc(NC(=O)Cn2nnc(C(=O)NCCc3ccc(OC)c(OC)c3)c2N)cc1,i
CC1(C)C2CCC1(C)C(OC(=O)CCn1ccnc1)C2 (configuration not stated),7.0
CCCN(CCO)Cc1ccc(F)c(Br)c1,i
N#CCSc1ccsc1C(=O)Nc1ccc(F)cc1,1.2
Cc1nn(-c2ccccc2)c2c1C(c1ccc(O)c(O)c1)N1C(=N2)C(Nc2ccccc2)=Nc2ccccc21 (configuration not stated),i
Cc1sc2ncnc(SCC(=O)N3CCCC3=O)c2c1C,i
O=C(OC1CCOC1=O)c1cncc(Br)c1 (configuration not stated),i
Cc1ccc(S(=O)(=O)N2CCOCC2)cc1NC(=O)COC(=O)CCC(=O)c1cccs1,i
C=CCN(CC=C)S(=O)(=O)c1ccc(NC(=S)NC(=O)/C=C/c2ccccc2)cc1,0.5
O=C(CCN1C(=O)S/C(=C\c2ccccc2)C1=O)Nc1ccc(S(=O)(=O)Nc2nccs2)cc1,0.3
CC(C)OC(=O)c1c(N)n(Cc2ccco2)c2nc3ccccc3nc12,i
CCOC(=O)/C(=N/Nc1ccccc1)c1csc(Nc2ccccc2)n1,2.4

# Exported with each value named: 2 of the compounds above
SMILES: CCCN(CCO)Cc1ccc(F)c(Br)c1
  H5N1 antiviral: i
SMILES: N#CCSc1ccsc1C(=O)Nc1ccc(F)cc1
  H5N1 antiviral: 1.2

# Carrying on:
SMILES,H5N1 antiviral
NC(=O)C1CCN(c2ncnc3c2c(-c2ccccc2)cn3-c2ccccc2)CC1,i
Cc1nc(C(=O)N(C)C)nn1-c1ccc(Cl)cc1Cl,i
CCO/C(=C/c1sc2ccc(OC)cc2[n+]1CCCS(=O)(=O)[O-])CC,0.1
Cc1occc1C(=O)Nc1ccc2ccccc2c1,i
O=C(N/N=C/C=C/c1ccc([N+](=O)[O-])cc1)c1cccs1,i
Cc1ccc(Nc2nc(C(=O)NCCCN3CCOCC3)cs2)cc1,i
CNC(=O)C1CC(=O)N(Cc2ccccc2)C(=Nc2ccc(OC)cc2)S1 (configuration not stated),1.0
N#CCSc1nnc(-c2cccnc2)n1-c1ccccc1,i
Cc1ccc(C)n1NC(=O)c1ccc(Cl)cc1Cl,i
Cc1cc(C)c(C#N)c(N2CCSCC2)n1,i
COCCN1C(=O)C(=O)/C(=C(/O)c2ccc(S(=O)(=O)N3CCOCC3)cc2)C1c1ccc(C(C)C)cc1 (configuration not stated),1.9
COc1ccc(CCN2C(=O)c3[nH]nc(-c4ccccc4O)c3C2c2cccc(O)c2)cc1OC (configuration not stated),0.9
COC(=O)Cc1cc(=O)[nH]c(/N=C(\N)Nc2ccc(C)cc2)n1,i
C=CCN1C(=O)NC(=O)C(Cc2ccc(OC)c(OC)c2)C1=O (configuration not stated),i
O=C(NCCCN1CCOCC1)c1ccco1,i
COc1cc(/C=C2/C(=N)N3C=CSC3=NC2=O)ccc1OCCCOc1ccccc1C,5.0
Cc1cccc(OCCCn2ccnc2)c1,0.3
CCN1CCN(Cc2ccc(C)cc2C)CC1,i
CCc1ccccc1N1CCN(S(=O)(=O)c2cc(OC)ccc2OC)CC1,0.7
COc1ccc(CN2CC3CC(C2)c2cccc(=O)n2C3)cc1OC (configuration not stated),0.1
Nc1ncnc2nc(SCCN3CCCCC3)[nH]c12,0.8
O=C(Nn1c(O)c(C=C2N=c3ccccc3=N2)sc1=S)c1ccc(Cl)cc1,0.7
CCOc1cc(/C=C2\N=C(C)OC2=O)cc(Br)c1OCCc1ccccc1,0.8
CC1=C(C(=O)N(C)CCC#N)C2(CCCCC2)OC1=O,0.4
CCOc1ccc(C(OC(=O)c2ccco2)C(=O)NCc2ccc(C)cc2)cc1 (configuration not stated),i
Cn1c(O)c(C(=O)c2ccccc2)c(=O)n(C)c1=O,i
O=C(CCCc1nc(-c2ccc(Cl)cc2)no1)N1CCOCC1,0.6
CCn1c(SCC(=O)N2CCOCC2)nc2c(c1=O)SC(C)C2 (configuration not stated),i
O=C(c1cc2n(n1)C(C(F)(F)F)CC(c1ccc(F)cc1)N2)N1CCCC1 (configuration not stated),i
Fc1c(F)c(C(F)(F)F)c(F)c(F)c1N1CCN(c2ccc3nnc(C(F)(F)F)n3n2)CC1,i
COC(=O)c1cc(OC)c(OC)c(OC)c1NC(=O)c1ccc(S(=O)(=O)N(C)C)cc1,0.5
C=CCOc1ccc(C2C(C(=O)c3ccco3)=C(O)C(=O)N2CCCN(CC)CC)cc1 (configuration not stated),i
CCOc1ccc(NC(=O)c2ccc3c(c2)N(Cc2ccc(F)cc2)C(=O)CS3=O)cc1 (configuration not stated),i
CCCN(CCC)CCCNC(=O)CC(C(=O)N1CCc2ccccc21)n1ccnc1 (configuration not stated),0.7
Cc1cccc(C)c1NC(=O)CN(C)CC(=O)Nc1ccc(C#N)c(Cl)c1,i
COc1cc(NC(=O)Nc2cccc(Cl)c2)c(OC)cc1NC(=O)CN1CCCCC1,i
COC(=O)c1sccc1NC(=S)N1CCCC(C)C1 (configuration not stated),1.9
Cc1cc(C)n2nc(C(=O)OCC(=O)c3cc(C)n(C)c3C)nc2n1,1.3
COCCOC(=O)C1=C(C)N=C2SCCC(=O)N2C1c1ccc(OC(=O)c2ccco2)cc1 (configuration not stated),0.1
C[C@H]1CCC[C@@H](O)CCC/C=C/c2cc(O)cc(O)c2C(=O)O1,i
CCOC(=O)Cc1csc(NC(=O)C(C)(C)CC)n1,i
O=C(c1cccc(F)c1)N1CCN(Cc2ccco2)CC1,i
O=c1cc(CNC2CCCCC2)c2ccccc2[nH]1,0.6
OC(Cn1nnc2ccccc21)Cn1c(C(F)(F)F)nc2ccccc21 (configuration not stated),i
COC(=O)C1(O)CC(C(C)C)=NN1C(=O)c1ccc(Cl)cc1 (configuration not stated),0.3
COc1ccccc1CNC(=O)Cn1cc2c(n1)CCCC2,i
CC1CCc2c(sc(NC(=O)c3ccc(Cn4cc(Br)cn4)o3)c2C(N)=O)C1 (configuration not stated),i
O=c1[nH]c2ccccc2n1Cc1ccccc1,0.2
CCc1cc[n+](-c2nc3ccccc3nc2C(=C=[N-])C#N)cc1,2.1
COc1ccc(OC)c(CNC(=O)C2CCN(C(=O)N(C)C)CC2)c1,0.4
Cc1ccc(NC(=S)NC(NC(=O)Cc2cccc3ccccc23)C(Cl)(Cl)Cl)cc1 (configuration not stated),i
COC(=O)c1cc2c([nH]c3ccccc32)c(C)n1,i
CCOc1ccc(NC(=O)N2CCC(C(N)=O)(N3CCCCC3)CC2)cc1,i
NS(=O)(=O)c1ccc(S(=O)(=O)NCCc2ccccc2)cc1,i
CCCOc1ccc2oc(=O)c3c(c2c1)CCCN3C(=O)CN1CCCC(C(=O)OCC)C1 (configuration not stated),2.7
Cc1cccc(C)c1NC(=O)Nc1cccs1,0.6
CC(C)Cc1nc(N2CCN(C(=O)c3ccccc3)CC2)c(C#N)c2c1CCC2,4.6
Cc1cccc(C)c1OCC(O)Cn1ccnc1C (configuration not stated),i
Cc1ccc(C(=O)Nc2c(C)cc(-c3ccc(Cl)cc3)oc2=O)cc1,i
COc1cc(SC#N)ccc1N=Cc1c(C)[nH]n(-c2ccc(C)cc2C)c1=O,i

# (cont.)
SMILES,H5N1 antiviral
Cc1ccnc(NC(=O)c2cccc(NS(=O)(=O)c3ccccc3C)c2)c1,i
CCOc1cc(NC(=S)NCc2ccco2)c(OCC)cc1NC(C)=O,i
Fc1ccccc1Nc1nc2ccccc2n2nnnc12,0.9
Cc1cc(N(CCO)CCO)nc(-n2nc(C)cc2C)n1,0.0
C=CCN1C(=O)C(O)(CC(=O)c2ccc(-n3cccc3)cc2)c2ccccc21 (configuration not stated),2.2
C[N+](C)(C)CCNC(=O)c1c(O)c2c([nH]c1=O)CCCC2,0.6
Cc1cc(C)cc(N(CC(=O)N2CCC(C)CC2)S(=O)(=O)c2ccccc2)c1,2.5
O=C(c1ccccc1)c1ccc(OCC(O)CN2CCN(Cc3ccccc3)CC2)cc1 (configuration not stated),0.0
Cc1onc(-c2ccccc2Cl)c1C(=O)NCc1ccccc1,0.5
CCOC(=O)N1CCN(C(=O)Nc2ccc3oc(C)nc3c2)CC1,0.6
COc1ccc(CNC(=O)CS(=O)Cc2nc(-c3ccc(C)cc3)oc2C)cc1 (configuration not stated),0.8
O=c1n(-c2cccc(Cl)c2)c(=O)n2n1CCC2,0.2
CCOC(=O)Cc1csc(NC(=O)COc2ccc(N(C)S(=O)(=O)c3cccs3)cc2)n1,i
CN(CC(=O)Nc1ccccc1C(=O)N1CCCC1)S(=O)(=O)c1ccc(Br)cc1,0.2
CCC(C)Nc1nc(CN2CCOCC2)nc2sc3c(c12)CCC3 (configuration not stated),0.3
O=C(Oc1ccc(Cl)c2cccnc12)N1CCOCC1,i
O=C(Nc1ccc(Cn2cccn2)cc1)c1ccc(COc2cccc(Br)c2)cc1,i
CCOC(=O)CCc1nc2ccccc2[nH]c1=O,0.1
O=C(c1ccco1)n1nc(-c2ccc(Cl)cc2)nc1NCc1ccco1,i
CCOc1cc2c(cc1OC)C(NC(=O)C(F)(F)F)CC2=O (configuration not stated),0.1
CC(SCc1ccccc1)C(=O)NC1CCCC1 (configuration not stated),0.4
O=C(O)C1CCN(C(=O)NC2CCCCC2)CC1,i
CC1CCCN(C(=O)c2ccc3c(c2NCCO)C(=O)c2ccccc2C3=O)C1 (configuration not stated),0.1
CNC(=O)c1nc(C)n(-c2cc(Cl)cc(Cl)c2)n1,0.0

# Given with tabs: part of the list above
molecule	H5N1 antiviral
Cc1ccc(C(=O)Nc2c(C)cc(-c3ccc(Cl)cc3)oc2=O)cc1	i
COc1cc(SC#N)ccc1N=Cc1c(C)[nH]n(-c2ccc(C)cc2C)c1=O	i
Cc1ccnc(NC(=O)c2cccc(NS(=O)(=O)c3ccccc3C)c2)c1	i
CCOc1cc(NC(=S)NCc2ccco2)c(OCC)cc1NC(C)=O	i
Fc1ccccc1Nc1nc2ccccc2n2nnnc12	0.9
Cc1cc(N(CCO)CCO)nc(-n2nc(C)cc2C)n1	0.0
C=CCN1C(=O)C(O)(CC(=O)c2ccc(-n3cccc3)cc2)c2ccccc21 (configuration not stated)	2.2
C[N+](C)(C)CCNC(=O)c1c(O)c2c([nH]c1=O)CCCC2	0.6
Cc1cc(C)cc(N(CC(=O)N2CCC(C)CC2)S(=O)(=O)c2ccccc2)c1	2.5
O=C(c1ccccc1)c1ccc(OCC(O)CN2CCN(Cc3ccccc3)CC2)cc1 (configuration not stated)	0.0
Cc1onc(-c2ccccc2Cl)c1C(=O)NCc1ccccc1	0.5
CCOC(=O)N1CCN(C(=O)Nc2ccc3oc(C)nc3c2)CC1	0.6
COc1ccc(CNC(=O)CS(=O)Cc2nc(-c3ccc(C)cc3)oc2C)cc1 (configuration not stated)	0.8
O=c1n(-c2cccc(Cl)c2)c(=O)n2n1CCC2	0.2
CCOC(=O)Cc1csc(NC(=O)COc2ccc(N(C)S(=O)(=O)c3cccs3)cc2)n1	i
CN(CC(=O)Nc1ccccc1C(=O)N1CCCC1)S(=O)(=O)c1ccc(Br)cc1	0.2
CCC(C)Nc1nc(CN2CCOCC2)nc2sc3c(c12)CCC3 (configuration not stated)	0.3
O=C(Oc1ccc(Cl)c2cccnc12)N1CCOCC1	i
O=C(Nc1ccc(Cn2cccn2)cc1)c1ccc(COc2cccc(Br)c2)cc1	i
CCOC(=O)CCc1nc2ccccc2[nH]c1=O	0.1
O=C(c1ccco1)n1nc(-c2ccc(Cl)cc2)nc1NCc1ccco1	i
CCOc1cc2c(cc1OC)C(NC(=O)C(F)(F)F)CC2=O (configuration not stated)	0.1
CC(SCc1ccccc1)C(=O)NC1CCCC1 (configuration not stated)	0.4
O=C(O)C1CCN(C(=O)NC2CCCCC2)CC1	i

# Screening results (PubChem BioAssay)
